S aureus helic: S. aureus DNA helicase inhibition | purified S. aureus helicase, fluorescence unwinding assay; about half of the hits fall short of the stated cut | inhibition, %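 (tested at about 80 µM)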 | 0.05% of 120,000 active | AID 485395;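 active = both duplicates at 50% or more, or one of them with a favoured structure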;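 note: 0% = mean of negative control wells and 100% = mean of positive control wells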
MgrA DNA FP: modulators of Staphylococcus aureus MgrA DNA binding; inhibition, %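 (about 10 µg/mL by stock and volumes)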; fluorescence polarization; 0.13% of 84,000 active;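 active = above 50% in either of two replicates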;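 note: 0% = protein plus DNA without compound and 100% = DNA alone without protein; higher means less MgrA bound to DNA so lower polarization; one replicate is shown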
* hit, by the source's call; / = not tested or not shown.

SMILES | S aureus helic | MgrA DNA FP
CC(=O)N1CC(C)Sc2cc(S(=O)(=O)NCc3ccco3)ccc21 (stereo not drawn) | -4.0 | 1.6
Cc1nc2sccn2c1-c1nc(-c2ccc(Br)o2)c(C(=O)c2ccc3c(c2)OCCO3)s1 | 5.0 | /
COCCn1c(N)c(C(=O)NCc2ccccc2)c2nc3ccccc3nc21 | 10.0 | /
Cc1ccc(CSc2n[nH]c(=O)n2-c2cccc(Cl)c2)cc1 | 3.0 | /
CN1C(=O)N(C)C2(CC1(C)C)CC(C)(C)N(C)C(=O)N2C | 12.0 | 4.2
COc1ccc(N2CCN(C(=O)/C=C/c3ccccc3)CC2)cc1 | 4.0 | /
FC(F)(F)c1ccc(Oc2ccc(Br)cc2)nc1 | / | -3.9
CCOCC(O)CSc1nc(C)cc(C)n1 (stereo not drawn) | 6.0 | -3.0
COc1ccccc1NC(=O)O/N=C(\N)c1ccccc1 | -12.0 | /
Cc1nc(NC(=O)C2CC2c2ccc(C(C)(C)C)cc2)sc1C(=O)N(C)C (stereo not drawn) | -15.0 | /
O=C(CSc1ncn[nH]1)Nc1cccc(Br)c1 | -19.0 | -0.2
Cc1ccc2nc3sc(C(N)=O)c(N)c3cc2c1 | 12.0 | -2.5
Cc1cc2occ(CC(=O)OCc3c(F)c(F)c(F)c(F)c3F)c2cc1C | -14.0 | /
Cc1ccc2c(N)c(C(=O)c3ccc(Cl)cc3)sc2n1 | 7.0 | 0.0
CC(C)c1ncc(S(=O)(=O)c2ccc(C(F)(F)F)cn2)c(N)n1 | / | 1.1
Cc1nc(-c2ccccc2)ccc1C(=O)O | 10.0 | /
Cc1ccnc(Cl)c1N | -1.0 | -0.2
COC(=O)Cn1c(=O)n(-c2ccccc2)c(=O)n1CC(=O)OC | 5.0 | /
Cc1ccc(/C=C/C(=O)N2CCN(C(c3ccccc3)c3ccccc3)CC2)o1 | 5.0 | -1.7
CCN(C(=O)Cn1cc(C(F)(F)F)ccc1=O)C1CCS(=O)(=O)C1 (stereo not drawn) | -3.0 | /
Cc1c(C(=O)/C(C#N)=C/N(C)C)sc2ccc(Cl)cc12 | / | 1.0
O=C1NS(=O)(=O)c2ccc(Cl)cc2Sc2ccccc21 | 23.0 | /
CC(C)(C)C(=O)C(C#N)=C1SCCS1 | / | 1.1
O=C(CN1C(=O)c2ccccc2S1(=O)=O)c1ccc(Cl)cc1 | -17.0 | -0.5
CCOc1ccc(-n2c(SCC(=O)NCc3ccco3)nc3n[nH]c(C)c3c2=N)cc1 | 7.0 | -0.2
CCCN(Cc1ccc(OC)c(C)c1OC)CC1CC1 | 6.0 | -0.8
O=C1CCC(=O)N1Nc1nc2ccccc2c2nc(-c3ccccc3)nn12 | 7.0 | -1.8
CC1CCC(C(C)C)C(OC(=O)CSc2nnc(N)s2)C1 (stereo not drawn) | -12.0 | /
O=C(Nc1ccccn1)C(=NO)C(=O)Nc1ccccn1 | -1.0 | 5.1
CCOC(=O)N1CCN(S(=O)(=O)c2ccc(OC)c(C(=O)N3CCCCC3)c2)CC1 | 18.0 | -0.3
O=C(CSc1ncccn1)N(c1ccccc1)C1CCS(=O)(=O)C1 (stereo not drawn) | -11.0 | /
CCCCCCCCc1ccc(-c2ccc(C(=O)Nc3nc4ccccc4n3C)cc2)cc1 | / | -0.5
N/C(CSc1nc(-c2ccccc2)c(-c2ccccc2)o1)=N\O | 4.0 | /
O=C(c1ccc(Br)cc1)C(C(=O)N1CCCCC1)n1ccccc1=O (stereo not drawn) | 7.0 | 0.8
CN1CCC2(CC1)Oc1ccccc1C1CC(c3ccccc3)=NN12 (stereo not drawn) | 17.0 | /
CCOc1ccccc1NC(=O)NC1Cc2ccccc2C1 | / | -1.6
Cc1ccc2[nH]c(-c3ccccc3)c(CN3CCCC3)c(=O)c2c1 | 16.0 | 1.7
CCNC(=S)N1CCN(c2ccccc2)CC1 | 1.0 | -0.3
N#CC(C#N)=NNc1cc(-c2ccccc2)[nH]n1 | -4.0 | /
CN(CCc1cn[nH]c1)Cc1nc(-c2ccc(C(F)(F)F)cc2)no1 | -12.0 | -0.1
Cc1ccc(-n2nc(-c3cccs3)cc2C(=O)NCC2CCCO2)c(C)c1 (stereo not drawn) | -3.0 | /
Cc1nnsc1C(=O)Oc1ccccc1N1CCCCC1 | / | -3.2
Cc1ccc2c(CC(=O)NCc3ccccc3)coc2c1 | 0.0 | /
C=Cn1ccnc1P(=NN=Nc1ccc(S(N)(=O)=O)cc1)(N(CC)CC)N(CC)CC | -3.0 | /
O=S(=O)(/N=C(\Nc1cccc2ccccc12)c1ccccc1)c1ccccc1 | -10.0 | -0.7
N#CC(=C1CCN(Cc2ccccc2)CC1)c1ccccc1 | 14.0 | -1.0
O=C(NC1CCCCC1)c1ccc(N2CCCC2=O)cc1 | -33.0 | /
O=C(Cc1cccs1)NN1CCOCC1 | 6.0 | 3.7
CC(=O)N1c2c(cc(Br)cc2S(=O)(=O)N2CCN(C(=O)c3ccco3)CC2)CC1C (stereo not drawn) | -12.0 | /
Cc1ccc(C)c(OCc2nnc(SCc3nc4ccccc4s3)o2)c1 | 8.0 | /
CN1CCN(c2ccc(Nc3ccnc4cc(Cl)ccc34)cc2Cl)CC1 | 6.0 | -1.2
Cc1cc2nc(C)n(CCCNC(=O)Nc3cccc4ccccc34)c2cc1C | 10.0 | 0.0
CC(C)NC(=O)Oc1noc2cc(Cl)ccc12 | -7.0 | /
Cn1c2c(c3ccccc31)C(=O)CCC2 | / | 1.4
Cc1ccc(-n2nc(C(=O)O)c(C)c(C#N)c2=O)cc1 | -25.0 | /
CCN(CC)C(=O)Cn1c2cc(OC)c(OC)cc2c2nc3n(c(=O)c21)CCS3 | 3.0 | -1.7
O=C1C2C3c4ccccc4C(c4ccccc43)C2C(=O)N1CCN1CCCCC1 (stereo not drawn) | -19.0 | /
C#CCSc1ncc(C(=O)O)c(C(OC)OC)n1 | -14.0 | /
COc1ccc(-c2nnc3c4ccccc4c(C)nn23)cc1S(=O)(=O)N1CCN(C)CC1 | 8.0 | /
CCOc1cc(/C=N/NC(N)=S)cc(I)c1O | 15.0 | 2.0
(continued)
SMILES | S aureus helic | MgrA DNA FP
CCOC(=O)N1CCC(NC(=O)CSCc2nc(-c3ccc(C)cc3)oc2C)CC1 | 6.0 | /
Cc1ccc2cc3c(nc2c1)N(Cc1ccco1)CC3 | 12.0 | -6.2
CCc1ccc(S(=O)(=O)NCCc2cn3ccccc3n2)s1 | 5.0 | -0.2
Cc1cc(NNC(=O)Nc2cccc(Cl)c2)nc2c1c(C)nn2C | 30.0 | /
CC(Oc1ccccc1)C(=O)Nc1c(C(=O)N2CCCC2)oc2ccccc12 (stereo not drawn) | 0.0 | /
N#CCCN1CCN(S(=O)(=O)c2ccc(C#N)cc2)CC1 | 6.0 | -2.6
O=C1CC(C(=O)Nc2cccc(C(=O)O)c2)C(c2ccccc2)O1 (stereo not drawn) | -8.0 | 0.7
O=c1oc(-c2ccncc2)nc2sc3c(c12)CCCCC3 | / | -0.6
O=c1c2ccccc2nnn1CSc1nc2ccccc2c(=O)n1CC1CCCO1 (stereo not drawn) | 23.0 | /
CCCNc1ncnc2c1cnn2C | 16.0 | /
CCOc1cc(N2CCOCC2)c(OCC)cc1NC(=O)c1c(C)nn(-c2ccccc2)c1C | -6.0 | /
CN(C(=O)CSc1nnc2c(Cl)cc(Cl)cn12)C1CCS(=O)(=O)C1 (stereo not drawn) | -13.0 | /
CC(C)NC(=S)N1CCN(S(C)(=O)=O)CC1 | 4.0 | -1.6
N/C(Cc1ccc(-c2csnn2)cc1)=N\OC(=O)C1CC1 | 32.0 | /
Cc1ccc(C)n1CC(F)(F)F | -18.0 | -0.8
O=C(Nc1ccccc1)Nc1cccc(-c2nnco2)c1 | / | -3.4
c1ccc2c(CNc3ncn[nH]3)cccc2c1 | 14.0 | -3.1
Nc1ncnc2c1ncn2C1O[C@H](COP(=O)(O)O)[C@@H](O)[C@H]1O (stereo partly drawn) | / | 3.2
O=[N+]([O-])c1ccc(Oc2cncc(Cl)c2)nc1 | / | 0.0
Cc1ccc2nc(CSc3nnc4ccccn34)cc(=O)n2c1 | -4.0 | /
CCCCOC(=O)C1=C(C)N(C)C(=O)NC1c1cc2c(cc1Br)OCO2 (stereo not drawn) | / | -1.7
CCCOc1ccccc1C1NC(=O)NC(C)=C1C(=O)OCc1ccc2c(c1)OCO2 (stereo not drawn) | / | 0.1
COc1ccccc1C(=O)Nc1sc2c(c1C(N)=O)CC(C)CC2 (stereo not drawn) | 8.0 | /
CNC(=O)N(O)C1N(NC(=O)Nc2ccccc2)C(=S)SC1(C)C (stereo not drawn) | -4.0 | -1.2
CCn1c(CCNC(C)=O)nc2ccccc21 | -13.0 | /
O=C(CSc1ncnc2c1nnn2-c1ccc(F)cc1)N1CCCc2ccccc21 | 6.0 | -3.5
Clc1ccccc1OCc1nn[nH]n1 | / | -1.3
CC(=O)NCc1ccc(C(=O)CSc2nnc(-c3cccc(C)c3)n2-c2ccc(C)cc2)o1 | -9.0 | /
CC1CC(C)CN(C(=O)c2ccc(CNS(=O)(=O)c3ccc(F)cc3)cc2)C1 (stereo not drawn) | 11.0 | 1.0
CCC(=O)N1N=C(c2ccccc2)CC1c1ccc(N(C)C)cc1 (stereo not drawn) | 7.0 | 4.2

Shown with two lines to a compound: part of the list above
Every second line gives: S aureus helic | MgrA DNA FP
- O=C1NS(=O)(=O)c2ccc(Cl)cc2Sc2ccccc21
  23.0 | /
- CC(C)(C)C(=O)C(C#N)=C1SCCS1
  / | 1.1

(listing goes on)
SMILES | S aureus helic | MgrA DNA FP
CCN(CC)c1ccc(C=Nc2ccc(S(=O)(=O)N3CCCC3)cc2)c(O)c1 | 4.0 | /
O=C(c1c(NS(=O)(=O)c2ccc3c(c2)OCCO3)sc2c1CCCC2)N1CCOCC1 | -12.0 | /
O/N=C/c1ncc(C(F)(F)F)cc1Sc1ccc(Cl)cc1 | / | -1.0
CN(C)C(CNC(=O)C(c1ccccc1)c1ccccc1)c1ccco1 (stereo not drawn) | -1.0 | /
CCn1c(-c2ccc(C)cc2)nc2ccccc21 | 20.0 | /
Cc1nnsc1C(=O)NCc1cc(F)cc2c1OCOC2 | / | -1.1
CC1CCC(C(=O)NC(C(=O)NC2CCN(Cc3ccccc3)CC2)C(C)C)CC1 (stereo not drawn) | 10.0 | /
Cc1ccc2nc(CN3CCc4sccc4C3c3cccs3)cn2c1 (stereo not drawn) | 8.0 | /
COC(=O)c1[nH]c2c(c1C)C(=O)CC(c1ccc(OC)cc1)C2 (stereo not drawn) | 15.0 | /
O=C(COc1ccc2ccccc2c1)Nc1ccc2nn(-c3ccccc3)nc2c1 | 4.0 | -0.3
C=CCSc1nc2ccccc2n1Cc1cc(C(=O)OC)c(C)o1 | -14.0 | /
CS(=O)(=O)N1CCN(S(C)(=O)=O)C2OCCOC21 (stereo not drawn) | 4.0 | -0.1
CCOC1=CC2=C(CC(C)(C)CC2=O)OC1N(C)C (stereo not drawn) | -2.0 | -0.6
CCOC(=O)N1CCN(C(=O)C2c3ccccc3C(=O)N(c3ccc(OC)cc3)C2c2ccc(OC)cc2)CC1 (stereo not drawn) | 15.0 | /
CN(C)c1ccc(-c2nc3ccccc3[nH]2)cc1 | -18.0 | /
CC(C)C(NS(=O)(=O)c1ccc2c(c1)CCCC(=O)N2)C(=O)NC1CCCC1 (stereo not drawn) | 1.0 | /
CCCN(CCC)C(=O)c1cc2sc3ccccc3c2s1 | -14.0 | /
O=C(CSc1nnc(NC2=NS(=O)(=O)c3ccccc32)s1)N1CCOCC1 | -5.0 | -3.2
Cc1cc(NC(=O)CN2CCN(S(=O)(=O)c3ccc(Cl)cc3)CC2)no1 | 6.0 | /
O=C(c1ccc(Cl)c(Cl)c1)c1nccn1-c1ccccn1 | -15.0 | -0.9
Cc1cc2nc(C)c(CCC(=O)N3CCN(Cc4ccc(C(C)C)cc4)CC3)c(C)n2n1 | -5.0 | /
COc1ccc(/C=C/C(=O)Nc2nnc(SCc3ccccc3)s2)cc1OC | -23.0 | /
NCCCC(=O)OC1CCCCC1 | 3.0 | 1.3
CN=c1scc(C)n1/N=C/c1ccco1 | -2.0 | /
O=C(CNc1ccc2c(c1)oc1ccccc12)c1ccc(F)cc1 | -1.0 | 1.9
CC1=NC(=O)CN1c1ccc(N)cc1 | 6.0 | -0.4
CCC(CO)NC(=S)Nc1c(Cl)cccc1Cl (stereo not drawn) | 21.0 | /
O=C(NC1CCCCC1)N1CC=C(c2ccccc2)CC1 | -17.0 | 3.0
O=C(CCc1ccccc1)Nc1ccccc1 | 0.0 | -0.1
CCOC(=O)CSCc1c(C)c(C)c(C)c(C)c1C | / | -1.7
CSc1cc(C(F)(F)F)nc(-c2ccccn2)n1 | / | 1.1
CCCCn1c(C)csc1=Nc1ccccc1 | 0.0 | /
CC(NC(=O)CSc1ccccc1Cl)c1ccccc1 (stereo not drawn) | -8.0 | 1.6
CC1(c2ccccc2)CCC(=O)O1 (stereo not drawn) | -1.0 | /

Of the compounds above, 6 have a cyano group.
SMILES | S aureus helic | MgrA DNA FP
Cc1c(C(=O)/C(C#N)=C/N(C)C)sc2ccc(Cl)cc12 | / | 1.0
CC(C)(C)C(=O)C(C#N)=C1SCCS1 | / | 1.1
N#CC(C#N)=NNc1cc(-c2ccccc2)[nH]n1 | -4.0 | /
N#CC(=C1CCN(Cc2ccccc2)CC1)c1ccccc1 | 14.0 | -1.0
Cc1ccc(-n2nc(C(=O)O)c(C)c(C#N)c2=O)cc1 | -25.0 | /
N#CCCN1CCN(S(=O)(=O)c2ccc(C#N)cc2)CC1 | 6.0 | -2.6

5 consecutive compounds already listed, for reference:
SMILES | S aureus helic | MgrA DNA FP
CCOC(=O)CSCc1c(C)c(C)c(C)c(C)c1C | / | -1.7
CSc1cc(C(F)(F)F)nc(-c2ccccn2)n1 | / | 1.1
CCCCn1c(C)csc1=Nc1ccccc1 | 0.0 | /
CC(NC(=O)CSc1ccccc1Cl)c1ccccc1 (stereo not drawn) | -8.0 | 1.6
CC1(c2ccccc2)CCC(=O)O1 (stereo not drawn) | -1.0 | /

This is a subset, so the mix of outcomes need not match the whole.
